CtBP-E1A blk: blocks the CtBP interaction with E1A | AlphaScreen GST-E1A/His-CtBP binding, 1536-well; stronger effect = lower value; control for the full effect not named in the record | activity change, % (no concentration beside the values) | actives 0.49% (n = 340,000) | AID 651724; in the data active means activity change below about -65%; inconclusive means about -30% to -65%; inactive means above about -30%; further: on the % scale 0 is the no-effect control and ±100 the full control effect; compound concentration not given in the record
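Steps: dispense buffer (Tris pH 8.0, NaCl 300 mM, TCEP 1 mM, BSA, Tween 20); add 5X protein mix (GST-E1A, His-CtBP, 125 nM each); pin 23 nL compound; 2 h at 37 °C, dark; add 5X beads (50 ug/mL); 1 h; read.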
D2 potentiator: human D2 receptor positive allosteric modulation; P14416; DiscoveRx D2 beta-arrestin cells, luminescence, 90 min; 100% = 57 uM dopamine signal; potentiation, % (test concentration not listed); actives 0.23% (n = 360,000); active = potentiation of 50% or more; inconclusive = 30% to 50%; inactive = 30% or less;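 further: compound concentration not given in the record; tested on top of an EC20 dose of dopamine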
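D2 cells co-treated with compound plus 50 nM dopamine (EC20) for 90 min at 37 deg C to detect potentiation. Beta-arrestin recruitment was read as enzyme-fragment luminescence after 1 h at ambient temperature. Full response was set by 57 uM dopamine.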
TRPV1 potentiator: potentiators of human vanilloid receptor 1 (TRPV1); Q8NER1; TRPV1-expressing cells, Fluo-8 calcium influx, capsaicin EC20 potentiation; host cell line not named in the record; control for the full effect not named in the record; actives 0.02% (n = 320,000); potentiation, % at 8.33 µM; AID 540277; active means potentiation above 80%; inconclusive means 30% to 80%; inactive means below 30%; further: 0% is about no effect
Target sequence (Q8NER1 whole entry, looked up): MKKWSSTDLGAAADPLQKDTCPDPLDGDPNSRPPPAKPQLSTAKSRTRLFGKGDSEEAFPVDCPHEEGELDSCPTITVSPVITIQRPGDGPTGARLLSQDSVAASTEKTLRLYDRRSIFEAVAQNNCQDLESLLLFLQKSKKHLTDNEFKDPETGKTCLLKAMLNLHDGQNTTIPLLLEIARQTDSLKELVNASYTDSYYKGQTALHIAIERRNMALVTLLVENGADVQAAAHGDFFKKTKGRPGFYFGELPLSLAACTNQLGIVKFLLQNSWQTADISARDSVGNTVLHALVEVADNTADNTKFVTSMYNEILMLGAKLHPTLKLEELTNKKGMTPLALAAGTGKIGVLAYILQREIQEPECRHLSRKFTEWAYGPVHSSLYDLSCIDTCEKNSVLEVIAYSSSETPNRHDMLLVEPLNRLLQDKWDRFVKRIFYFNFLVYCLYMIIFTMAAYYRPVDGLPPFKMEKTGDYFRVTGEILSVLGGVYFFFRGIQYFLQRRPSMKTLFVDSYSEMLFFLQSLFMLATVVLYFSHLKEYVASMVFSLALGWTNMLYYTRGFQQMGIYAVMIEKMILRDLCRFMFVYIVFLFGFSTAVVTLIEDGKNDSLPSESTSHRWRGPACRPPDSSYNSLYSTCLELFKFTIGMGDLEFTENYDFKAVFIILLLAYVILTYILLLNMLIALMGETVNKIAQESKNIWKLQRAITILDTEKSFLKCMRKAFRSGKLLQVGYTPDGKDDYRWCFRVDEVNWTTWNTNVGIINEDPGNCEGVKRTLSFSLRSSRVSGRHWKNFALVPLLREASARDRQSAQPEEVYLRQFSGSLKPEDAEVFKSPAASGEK
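TRPV1-expressing cells were cultured overnight at 35.5C and loaded with Fluo-8 calcium dye for 40 to 90 min at room temperature. After a 10 s baseline, compound was added and calcium influx was read kinetically for 3 min (ex 480/em 520 nm).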
D2 agonist: agonists of human D2 dopamine receptor (beta-arrestin). P14416. DiscoveRx PathHunter D2 beta-arrestin, luminescence, 90 min; 100% = 57 uM dopamine signal. activation, % (no concentration beside the values). actives 0.084% (n = 360,000). AID 624465; in the data active = activation above about 40%; inconclusive = about 15% to 40%; inactive = below about 15%; further: compound concentration not given in the record; the text of the record calls up to 30% inactive
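DiscoveRx PathHunter D2 beta-arrestin cells (2,100/well) attached overnight, then compound-stimulated 90 min at 37 C in HBSS/10 mM HEPES/0.1% Tween-20 buffer; beta-galactosidase complementation read by luminescence after 1 h at ambient temperature. Dopamine 57 uM final (EC100) as control.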
Six1-Eya2 blk: inhibitors of human Six1/Eya2 interaction. AlphaScreen GST-Six1/His-Eya2 binding, biochemical; stronger effect = lower value; control for the full effect not named in the record. activity change, % (no concentration beside the values). actives 0.56% (n = 360,000); in the data active = activity change below about -65%; inconclusive = about -30% to -65%; inactive = above about -30%; further: on the % scale 0 is the no-effect control and ±100 the full control effect; compound concentration not given in the record
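Compounds are tested against tagged Six1 and Eya2 proteins bridged by glutathione donor and nickel acceptor beads; after a one-hour incubation at 37 °C without light, AlphaScreen emission is recorded.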
PINK1 modulator: PINK1 expression modulation | AID 624263 | PINK1 immunofluorescence, high-content cytometry, 24 h | Potency, µM (doses to about 76.6 µM), for the others: at the highest dose activation (PINK1 increase), hits mostly activators | actives 0.2% (n = 410,000); active = well fitted activation curve with a large enough effect; inconclusive = small, poorly fitted or top-dose-only effect; inactive = flat fitted curve, though single readings scatter; cell line not stated here;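 further: potency means the concentration at half of the fitted maximal effect; % of control where 0% means no effect; nearly all actives have a fitted effect of over 65% in size; a mitochondrial uncoupler was the plate control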
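PINK1 protein level read as immunofluorescence by microplate cytometer in a fixed, stained stable cell line after 24 h exposure to five compound concentrations, with CCCP as control.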
Sfp inh: blocks B. subtilis Sfp PPTase activity; Q9F4F7; actives 3.5% (n = 310,000); Potency, µM, inactives show max response, negative = inhibition, usual class: inhibitors; Biochemical Sfp PPTase activity, qHTS; active means well fitted inhibition curve with a large enough effect; inconclusive means small, poorly fitted or top-dose-only effect, or another doubt; inactive means no such curve, though single readings can be large or run the other way;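 further: the enzyme is Sfp with the accession as filed and its product quenches rhodamine fluorescence; potency means the concentration at half of the fitted maximal effect; 0% = enzyme reaction without inhibitor and -100% = no enzyme wells; top concentration of the series not given in the record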
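Sfp 15 nM + cpd, 15 min RT; start w/ rhodamine-CoA 5 uM, BHQ-2-YbbR 12.5 uM (final); 50 mM Hepes pH 7.6, 10 mM MgCl2, 0.01% NP-40, 0.01% BSA; read 525/598 nm at 0 and 30 min.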
* hit, by the source's call; [ ] = remark or other dose.

How did O=C(O)c1cc(NS(=O)(=O)c2ccc(F)cc2)cc(NS(=O)(=O)c2ccc(F)cc2)c1 do in these assays?
CtBP-E1A blk: 3.9; D2 potentiator: -0.5; D2 agonist: 5.0; Six1-Eya2 blk: -1.4; PINK1 modulator: 1.1%

Results for O=C(COC(=O)C1=COCCO1)NCc1ccc(Cl)cc1 ?
D2 potentiator: -15.6; TRPV1 potentiator: 0.1; D2 agonist: -3.4; Six1-Eya2 blk: 3.6; PINK1 modulator: 2.2%; Sfp inh: 1.8%

How did CC(=O)N1CCC(C(=O)NC2CCCc3c2cnn3-c2cc(F)cc(F)c2)CC1 (centres undefined) do in these assays?
CtBP-E1A blk: -7.1; D2 potentiator: -8.9; TRPV1 potentiator: -15.6; D2 agonist: -2.6; Six1-Eya2 blk: 0.0; PINK1 modulator: 1.5%; Sfp inh: 18.5%

Results for CCCn1nc(NS(=O)(=O)c2ccccc2)c2cc3cc(C)ccc3nc21 ?
CtBP-E1A blk: 8.8; D2 potentiator: -9.3; TRPV1 potentiator: 2.6; D2 agonist: 3.0; Six1-Eya2 blk: 6.3; PINK1 modulator: 1.6%; Sfp inh: 5.5%

How did Cc1ccc(-c2nc(N/N=C/c3cccnc3)c3ccccc3n2)cc1 do in these assays?
CtBP-E1A blk: 5.9; D2 potentiator: 0.3; TRPV1 potentiator: -0.7; D2 agonist: 1.4; Six1-Eya2 blk: -28.7; PINK1 modulator: 2.1%[38.3 µM]; Sfp inh: -7.8%

What do the screens show for `Cc1ccc(N(C(=O)CC2NC(=O)NC2=O)C2(C(=O)NC3CCCC3)CCCCC2)cc1` (centres undefined)?
CtBP-E1A blk: -10.4; D2 potentiator: -12.3; TRPV1 potentiator: -16.3; D2 agonist: -1.6; Six1-Eya2 blk: 0.4; PINK1 modulator: -1.7%; Sfp inh: -12.9%

How did O=C(CN1C(=O)C2CC=CCC2C1=O)NCC(=O)Nc1ccc(F)c(F)c1 (centres undefined) do in these assays?
CtBP-E1A blk: -1.2; D2 potentiator: -4.0; TRPV1 potentiator: 10.4; D2 agonist: -0.5; Six1-Eya2 blk: 5.8; PINK1 modulator: -3.0%

Results for CCOc1ccc(/C=C/C(=O)OC(C)C(=O)NC2CCCCC2C)cc1OC (centres undefined) ?
CtBP-E1A blk: 3.2; D2 potentiator: 16.4; TRPV1 potentiator: -2.0; D2 agonist: -1.1; Six1-Eya2 blk: -4.1; PINK1 modulator: 3.8%

What do the screens show for `C[C@H](CO)N1C[C@H](C)[C@@H](CN(C)C(=O)Nc2ccc3c(c2)OCO3)Oc2ccc(NC(=O)Cc3ccccc3)cc2C1=O`?
CtBP-E1A blk: -2.4; D2 potentiator: -10.3; D2 agonist: -3.2; Six1-Eya2 blk: -7.0; PINK1 modulator: 1.7%

How did COc1ccc(CNS(=O)(=O)c2c(C)[nH]c(C)c2C(=O)N2CCCC2)cc1 do in these assays?
CtBP-E1A blk: -2.0; D2 potentiator: -12.1; TRPV1 potentiator: 8.1; D2 agonist: -1.4; Six1-Eya2 blk: 3.7; PINK1 modulator: -1.4%; Sfp inh: 11.9%

Results for Cc1ccc(CNc2nc3ccccc3n3nnnc23)cc1 ?
CtBP-E1A blk: 1.6; D2 potentiator: 52.0*; TRPV1 potentiator: 5.3; D2 agonist: -1.2; Six1-Eya2 blk: 3.8; PINK1 modulator: 0.6%; Sfp inh: -0.7%

Results for COc1cccc(C(=O)N/N=C(\C)CC(=O)Nc2ccc(N(C)C)cc2)c1 ?
CtBP-E1A blk: inconclusive; D2 potentiator: -0.8; TRPV1 potentiator: 6.5; D2 agonist: -1.8; Six1-Eya2 blk: inconclusive; PINK1 modulator: -1.3%; Sfp inh: -6.0%

How did Cc1nc(/C=C/c2ccccc2)[nH]c(=O)c1-c1ccccc1 do in these assays?
CtBP-E1A blk: 0.3; D2 potentiator: -8.6; TRPV1 potentiator: 1.6; D2 agonist: -3.6; Six1-Eya2 blk: 3.3; PINK1 modulator: 16.5%; Sfp inh: 13.4%

Results for CCOc1ccc(NC(=O)CC(=O)Nc2ccc(OCC)cc2)cc1 ?
CtBP-E1A blk: 6.3; D2 potentiator: 2.7; TRPV1 potentiator: inconclusive; D2 agonist: 8.4; Six1-Eya2 blk: 6.6; PINK1 modulator: 2.1%; Sfp inh: 3.8%

How did CCCOc1ccc(/C(O)=C2\C(=O)C(=O)N(c3ccccn3)C2c2ccccc2F)cc1C (centres undefined) do in these assays?
CtBP-E1A blk: 1.8; D2 potentiator: -3.4; TRPV1 potentiator: 7.5; D2 agonist: -5.7; Six1-Eya2 blk: -0.1; PINK1 modulator: 1.3%; Sfp inh: 0.6%

Results for CC(=O)N1CCOc2ccc(S(=O)(=O)N3CCN(c4cc(C)ccc4C)CC3)cc21 ?
CtBP-E1A blk: -6.9; D2 potentiator: -11.5; TRPV1 potentiator: -8.4; D2 agonist: -2.2; Six1-Eya2 blk: -2.0; PINK1 modulator: 1.0%; Sfp inh: -3.0%

What do the screens show for `O=C(Nc1ccc(CN2CCOCC2)cc1)c1cc(Br)ccc1Cl`?
CtBP-E1A blk: 8.4; D2 potentiator: -2.7; TRPV1 potentiator: 5.2; D2 agonist: -6.1; Six1-Eya2 blk: -8.7; PINK1 modulator: 0.6%; Sfp inh: 9.9%

Results for O=C(CSc1n[nH]c(=O)[nH]c1=O)c1ccc([N+](=O)[O-])cc1 ?
CtBP-E1A blk: -0.1; D2 potentiator: 10.1; TRPV1 potentiator: inconclusive; D2 agonist: inconclusive; Six1-Eya2 blk: 5.3; PINK1 modulator: -1.6%; Sfp inh: -12.8%

What do the screens show for `CN1CCC(N(C)S(=O)(=O)c2ccc(Cl)cc2)CC1`?
CtBP-E1A blk: 5.8; D2 potentiator: -3.8; TRPV1 potentiator: -4.8; D2 agonist: -3.9; Six1-Eya2 blk: -1.5; PINK1 modulator: 2.6%; Sfp inh: 15.3%

Results for CCOc1ccc(Br)cc1C(=O)N/N=C/c1cccnc1 ?
D2 potentiator: -0.1; TRPV1 potentiator: 1.9; D2 agonist: -0.8; Six1-Eya2 blk: -2.2; PINK1 modulator: 3.4%; Sfp inh: 2.4%

What do the screens show for `O=C(Nc1cccnc1)c1cc(-c2ccc(Br)cc2)on1`?
CtBP-E1A blk: 1.6; D2 potentiator: -6.2; TRPV1 potentiator: 7.8; D2 agonist: -5.3; Six1-Eya2 blk: -0.9; PINK1 modulator: -0.1%; Sfp inh: 6.0%

How did CCSc1ccc(C(=O)Nc2cccc(C)n2)cc1[N+](=O)[O-] do in these assays?
CtBP-E1A blk: 0.5; D2 potentiator: -14.3; TRPV1 potentiator: 10.4; D2 agonist: -1.7; Six1-Eya2 blk: -5.9; PINK1 modulator: 27.5%; Sfp inh: 1.6%

Results for COc1ccccc1NC(=O)CCN1C(=O)/C(=C/c2cc(OC)c(OC)c(OC)c2)SC1=S ?
D2 potentiator: inconclusive; TRPV1 potentiator: 27.0; D2 agonist: 1.6; Six1-Eya2 blk: -9.9; PINK1 modulator: 3.2%; Sfp inh: 44.7µM*

Results for Cc1c(O)ccc(C(=O)COc2ccc(F)cc2)c1O ?
CtBP-E1A blk: -2.2; D2 potentiator: 10.3; TRPV1 potentiator: -0.2; D2 agonist: 0.3; Six1-Eya2 blk: 11.5; PINK1 modulator: 3.9%; Sfp inh: 11.0%

Fetched by structure from the entries so far (2):
How did CCCOc1ccc(/C(O)=C2\C(=O)C(=O)N(c3ccccn3)C2c2ccccc2F)cc1C (centres undefined) do in these assays?
CtBP-E1A blk: 1.8; D2 potentiator: -3.4; TRPV1 potentiator: 7.5; D2 agonist: -5.7; Six1-Eya2 blk: -0.1; PINK1 modulator: 1.3%; Sfp inh: 0.6%

How did CCSc1ccc(C(=O)Nc2cccc(C)n2)cc1[N+](=O)[O-] do in these assays?
CtBP-E1A blk: 0.5; D2 potentiator: -14.3; TRPV1 potentiator: 10.4; D2 agonist: -1.7; Six1-Eya2 blk: -5.9; PINK1 modulator: 27.5%; Sfp inh: 1.6%

Further entries follow.
What do the screens show for `O=C(NCCCCc1ccccc1)c1cccc(NC(=O)C2CCCCC2)c1`?
CtBP-E1A blk: -3.3; D2 potentiator: -8.4; D2 agonist: -1.1; Six1-Eya2 blk: -10.1; PINK1 modulator: 1.9%

What do the screens show for `O=C(Nc1sc2c(c1C(=O)O)CCC2)c1ccccc1`?
CtBP-E1A blk: -19.3; D2 potentiator: -5.0; TRPV1 potentiator: 19.3; D2 agonist: -0.2; Six1-Eya2 blk: -8.8; PINK1 modulator: -1.0%; Sfp inh: 3.5%

How did Cc1cc(CNC(=O)c2cccc([N+](=O)[O-])c2)c2ccccc2n1 do in these assays?
CtBP-E1A blk: -17.8; D2 potentiator: 1.6; TRPV1 potentiator: inconclusive; D2 agonist: 4.8; Six1-Eya2 blk: -2.9; PINK1 modulator: -1.7%; Sfp inh: -4.1%

Results for CCN(CC)S(=O)(=O)c1ccc(C)c(NC(=O)CNCCN(C(C)C)C(C)C)c1 ?
D2 potentiator: -6.4; TRPV1 potentiator: 3.1; D2 agonist: 0.0; Six1-Eya2 blk: 18.0; PINK1 modulator: 2.5%; Sfp inh: inconclusive

Results for CCOC(=O)C(C)N1C(=O)S/C(=C\c2ccc(-c3ccccc3C(=O)O)o2)C1=O (centres undefined) ?
D2 potentiator: -9.1; TRPV1 potentiator: -5.3; D2 agonist: -3.8; Six1-Eya2 blk: inconclusive; PINK1 modulator: 0.8%; Sfp inh: -16.7%

How did Fc1ccc2cc(CCO[C@H]3CCCCO3)ncc2c1 do in these assays?
CtBP-E1A blk: 15.8; D2 potentiator: -9.7; D2 agonist: -0.4; Six1-Eya2 blk: -3.2; PINK1 modulator: -1.1%

How did O=S1(=O)CCC(NC(=S)NCCNC(=S)NC2CCS(=O)(=O)C2)C1 (centres undefined) do in these assays?
CtBP-E1A blk: 12.1; D2 potentiator: 6.7; TRPV1 potentiator: 4.3; D2 agonist: -0.4; Six1-Eya2 blk: 8.1; PINK1 modulator: 2.2%; Sfp inh: inconclusive

How did O=C(NCc1ccccc1)C1=C[C@@H](c2ccc3c(c2)OCO3)C[C@@H](OCc2ccc(CO)cc2)O1 do in these assays?
CtBP-E1A blk: -3.2; D2 potentiator: -3.9; D2 agonist: 0.2; Six1-Eya2 blk: -2.7; PINK1 modulator: -1.1%

Results for COc1ccc(C(=O)NCc2nnc(SCC(=O)Nc3cccc(C(F)(F)F)c3)o2)cc1OC ?
CtBP-E1A blk: 1.7; D2 potentiator: -17.0; TRPV1 potentiator: 11.7; D2 agonist: -1.0; Six1-Eya2 blk: -1.6; PINK1 modulator: 0.5%; Sfp inh: 4.2%

High-throughput results from PubChem.
